SARS PLP yeast – qHTS of Yeast-based Assay for SARS-CoV PLP | S. cerevisiae expressing SARS-CoV PLpro, growth rescue; control for the full effect not named in the record | Potency, µM (highest dose often 32.9 µM), inactives show at the top dose activity, positive = growth rescue | 0.19% of 330,000 active | AID 485353, 2010; note: 0% is about no effect; nearly all actives have a fitted effect of over 55% in size; growth read by luminescence after 48 h
Cruzain inh Det – qHTS Assay for Promiscuous and Specific Inhibitors of Cruzain (with detergent); Cruzipain (Trypanosoma cruzi), P25779; AID 1478, 2009; Potency, µM, inactives show max response, negative = inhibition, most hits filed as inhibitors; purified cruzain, Z-FR-AMC fluorescence, 0.01% Triton; 0.43% of 200,000 active; active = well fitted curve in the direction sought with a large enough effect; inconclusive = small, poorly fitted or top-dose-only effect, or another doubt; inactive = no such curve, though single readings can be large; an effect the other way counts as inactive or inconclusive;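 note: plate controls were neutral wells for no effect and buffer without enzyme for full effect; nearly all actives have a fitted effect of over 40% in size; top concentration of the series not given in the record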
Target sequence (P25779 123-467 limits assumed): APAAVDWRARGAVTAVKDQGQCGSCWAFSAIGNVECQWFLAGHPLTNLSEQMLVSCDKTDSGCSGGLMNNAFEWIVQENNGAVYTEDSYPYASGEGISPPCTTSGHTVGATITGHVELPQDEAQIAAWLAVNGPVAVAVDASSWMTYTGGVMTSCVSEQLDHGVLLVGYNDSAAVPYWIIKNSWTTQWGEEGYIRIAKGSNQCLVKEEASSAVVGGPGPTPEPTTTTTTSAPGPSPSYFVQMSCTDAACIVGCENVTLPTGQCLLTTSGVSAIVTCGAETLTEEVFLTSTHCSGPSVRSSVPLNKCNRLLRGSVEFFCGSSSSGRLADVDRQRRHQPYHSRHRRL
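In this qHTS format, compounds are incubated with 1.5 nM cruzain for 15 min at room temperature before 2 uM Z-FR-AMC is added. Release of AMC is followed at 360/450 nm, and progress is taken as the 60 s fluorescence difference.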
Cruzain noTriton – qHTS Assay for Promiscuous and Specific Inhibitors of Cruzain (without detergent); Cruzipain (Trypanosoma cruzi), P25779; purified cruzain, Z-FR-AMC fluorescence, no detergent; Potency, µM, without a hit: max response, negative = inhibition, actives largely listed as inhibitors; 2.3% of 200,000 active; AID 1476, 2009; active = well fitted curve in the direction sought with a large enough effect; inconclusive = small, poorly fitted or top-dose-only effect, or another doubt; inactive = no such curve, though single readings can be large; an effect the other way counts as inactive or inconclusive;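 note: plate controls were enzyme without inhibitor for no effect and buffer without enzyme for full effect; nearly all actives have a fitted effect of over 40% in size; top concentration of the series not given in the record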
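Detergent-free condition (0.00005% Triton X-100) in acetate buffer pH 5.5 with DTT. 1.5 nM enzyme and compound were pre-mixed 15 min, then 2 uM Z-FR-AMC substrate added; reaction progress from fluorescence change between first and third reads (60 s).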
2A StopGo – High Throughput Screening for Foot and Mouth Disease Virus Antivirals. human cells with a luciferase reporter of 2A StopGo recoding; control for the full effect not named in the record. 1.2% of 410,000 active. AID 1159524, 2015. Potency, µM (series often up to 57.9 µM), inactives show at the highest dose signal change, negative = less light; active = well fitted falling curve with a large enough effect; inconclusive = small, poorly fitted or top-dose-only effect; inactive = no such curve, though single readings can be large or run the other way; tested in HEK293T cells; note: % is set by controls: 0 for no effect and ±100 for the full control effect; nearly all actives have a fitted effect of over 45% in size; luciferase light after 4 h
RE007 growth inh – qHTS Assay for Inhibitors of the HIV-1 protein Vpr; S. pombe RE007 Vpr strain, BacTiter-Glo ATP luminescence, 24 h; control for the full effect not named in the record; Potency, µM (doses to about 92.2 µM), for the others: top-dose activity change, negative = less growth; 0.21% of 360,000 active; AID 651644, 2012; active = well fitted falling curve with a large enough effect; inconclusive = small, poorly fitted or top-dose-only effect; inactive = no such curve, though single readings can be large or run the other way;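 note: % is set by controls: 0 for no effect and ±100 for the full control effect; nearly all actives have a fitted effect of over 50% in size; the assay follows cell death caused by Vpr and the record does not say whether a fall means rescue or toxicity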
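Fission yeast RE007 carrying one integrated HIV-1 vpr copy, seeded at OD 0.01 in PMG+AL medium with 23 nL pinned compound. Grown 24 h at 30 degrees; viability read by BacTiter-Glo luminescence after 5 min.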
LASV entry inh – qHTS for Inhibitors of binding or entry into cells for Lassa Virus; AID 540256, 2011; Potency, µM (titrated, usually from 37.9 µM), for the others: top-dose activity change, negative = inhibition, actives largely listed as inhibitors; 1.2% of 300,000 active; Lassa virus pseudotype entry inhibition, cell reporter; control for the full effect not named in the record; active means well fitted inhibition curve with a large enough effect; inconclusive means small, poorly fitted or top-dose-only effect, or effect the other way; inactive means flat fitted curve, though single readings scatter; tested in HEK293 cells; note: % is set by controls: 0 for no effect and ±100 for the full control effect; nearly all actives have a fitted effect of over 50% in size; luciferase read-out
NS1 inh – qHTS Assay for Inhibitors of Influenza NS1 Protein Function; S. cerevisiae slowed by influenza A NS1, growth recovery by OD600; Potency, µM (titrated, usually from 46.1 µM), inactives show at the top dose activity, positive = more growth; 0.4% of 270,000 active; note: actives are rising curves; nearly all actives have a fitted effect of over 50% in size
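Recovery from NS1-induced slow growth read by OD600 in budding yeast switched to galactose assay medium (pH 6.0, -URA) at 1:100 dilution. Compound 23 nl per well; the matching strain lacking NS1 serves as control.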
Marburg entry inh – qHTS for inhibitors of binding or entry into cells for Marburg Virus; Marburg virus pseudotyped entry inhibition, cell reporter; control for the full effect not named in the record; about a third of the inactives were read at about 46 µM; Potency, µM (series often up to 37.8 µM), without a hit: at the top dose activity change, negative = inhibition, most hits filed as inhibitors; 1.8% of 300,000 active; active = well fitted inhibition curve with a large enough effect; inconclusive = small, poorly fitted or top-dose-only effect, or effect the other way; inactive = flat fitted curve, though single readings scatter; tested in HEK293 cells; about a fifth of its hits are not listed in these tables; note: % is set by controls: 0 for no effect and ±100 for the full control effect; luciferase read-out
* hit, by the source's call; u = inconclusive; x = not tested or not shown; & = joins results of further samples; [ ] = dose if it differs, or a comment. Unless noted, calls come from the whole dose curve; as a rule, active means well fitted rising curve with a large enough effect; inconclusive means small, poorly fitted or top-dose-only effect; inactive means no such curve, though single readings can be large or run the other way. Potency is the fitted concentration of half-maximal effect.

SMILES	SARS PLP yeast	Cruzain inh Det	Cruzain noTriton	2A StopGo	RE007 growth inh	LASV entry inh	NS1 inh	Marburg entry inh
O=C(COc1ncnc2ccc(Br)cc12)NCc1ccco1	0%	x	x	0%	-11%	u	-5%	u
COC(=O)[C@@]1(Cc2ccc(F)cc2)[C@H]2c3cc(C(=O)N4CCCC4)n(CCSCCO)c3C[C@H]2CN1C(=O)c1ccccc1	x	-4.1%	u	-17%	15%	x	x	x
Cc1c(O)ccc(-c2[nH]ncc2-c2nc3ccccc3s2)c1O	u	-4.7%	-5%	u	-6%	-18%	-6%	u
CNC(=O)NC(=O)C(C)N1CCN(C/C=C/c2ccccc2)CC1 (stereo not given)	0%	x	x	-10%	-8%	1%	-1%	6%[14.2 µM]
CC(=O)CCc1ccccc1	3%	3.2%	u	-17%	-3%	x	x	x
Cc1sc2ncnc(N3CCC(C(=O)N(C)CC(=O)Nc4ccc(Cl)c(C(F)(F)F)c4)CC3)c2c1C	1%	x	x	u	4%	7.1µM*	x	u
Cc1ccc(NC(=O)C(=O)NCC(c2cccnc2)N2CCN(C)CC2)cc1 (stereo not given)	x	-15%	u	-14%	x	-14%[46.1 µM]	x	x
O=c1[nH]c(CN2CCC(c3nc4ccccc4s3)CC2)nc2sc3c(c12)CCC3	6%	0.0%	7%	x	x	x	-6%	4%
CCCCn1c(CN2CCN(C(=O)OCC)CC2)nc2c1c(=O)[nH]c(=O)n2C	-14%	2.9%	-8%	13%	-9%	-22%	-1%	15%
Cc1ccc(-n2ncc3c(N4CCCCCC4)ncnc32)cc1Cl	x	0.6%	5%	63µM*	x	15%[46.1 µM]	x	x
Cc1ccccc1C(=O)Nc1ccc(S(=O)(=O)N2CCOCC2)cc1	0%	x	x	-8%	-16%	u	0%	3%
CCOc1ccc(-n2c(N)c(C(=O)NCC3CCCO3)sc2=S)cc1 (stereo not given)	3%	-5.4%	-10%	0%	-12%	0%	-4%	-14%[46.1 µM]
COC(=O)C1CN(S(=O)(=O)c2ccc(C)cc2)CCN1S(=O)(=O)c1ccc(C)cc1 (stereo not given)	8%	0.7%	4%	u	-19%	u	-6%	-11%
CC(C)(CNc1ccc([N+](=O)[O-])cc1Cl)N1CCOCC1	1%	x	x	-22%	9%	2%[46.1 µM]	5%	-12%[46.1 µM]
O=C(c1cnn(C(=O)c2cccc(S(=O)(=O)N3CCOCC3)c2)c1)c1ccccc1O	-4%	x	x	-17%	5%	14%	x	-8%
CCN1CCN(CCC2Oc3cc([N+](=O)[O-])ccc3NC2=O)CC1 (stereo not given)	-1%	x	x	4%	-18%	-20%	1%	u
COC1CCCCC1NS(=O)(=O)c1ccccc1 (stereo not given)	3%	8.5%	6%	-9%	16%	5%	-15%	0%
c1ccc(Cc2nnc3sc(-c4ccc5c(c4)OCCO5)nn23)cc1	0%	-3.8%	u	40%[activator]	-19%	x	-56%	-10%
CCOC(=O)c1sc(=NC(=O)/C=C/c2ccccc2)n(C)c1C	3%	x	x	9%	-8%	u	x	u
Cc1cc(C)c(S(=O)(=O)N2CCN(c3ccccn3)CC2)c(C)c1	-1%	x	x	-29%	18%	17%	x	-24%[46.1 µM]
CN(Cc1ccccc1)C(=C(Cl)Cl)/C(=C1/NCCN1Cc1ccc(Cl)nc1)[N+](=O)[O-]	-5%	-3.6%	8%	x	-6%	9%	-13%	u
Cc1ccc2c(c1)C(c1ccccc1)N(C(=O)c1ccc(Br)cc1)CC(=O)N2 (stereo not given)	-2%	x	x	-7%	-9%	u	12%	-3%[46.1 µM]
Cc1c(C(=O)NCC2CCCO2)cccc1[N+](=O)[O-] (stereo not given)	-4%	-8.2%	-9%	-2%	6%	14%	10%	u
CC(=O)c1c(OCC(=O)N(C)C2CCCCC2)ccc2c(C)cc(=O)oc12	1%	x	x	-16%	3%	1%	x	-3%
Cn1c(=O)oc2cc(S(=O)(=O)NC3CCCCCCC3)ccc21	-4%	5.1%	4%	26%	11%	15%	-14%	-8%
CN(C)C(=O)Oc1ccc(OCc2cccc[n+]2C)cc1	18%	1.2%	7%	4%	-5%	u	3%	0%
COc1ccccc1C(N)=S	29%	-1.8%	1%	4%	6%	21%	5%	3%
CCOc1ccc(N2C(=O)/C(=C/c3ccc(C)o3)C(=O)NC2=S)cc1	1%	x	x	40µM*	-6%	x	13%	x
Cc1cccc(NC(=O)C23CCC(C)(/C(=N/O)C2)C3(C)C)c1 (stereo not given)	1%	5.1%	-1%	-11%	4%	-1%	0%	10%
O=C(NCC(=O)N(CC1CCCO1)C1(C(=O)NC2CCCCC2)CCCCC1)c1ccccc1 (stereo not given)	1%	13%	3%	22%	-1%	2%	-9%	-19%

In the list so far, these contain bromine.
SMILES	SARS PLP yeast	Cruzain inh Det	Cruzain noTriton	2A StopGo	RE007 growth inh	LASV entry inh	NS1 inh	Marburg entry inh
O=C(COc1ncnc2ccc(Br)cc12)NCc1ccco1	0%	x	x	0%	-11%	u	-5%	u
Cc1ccc2c(c1)C(c1ccccc1)N(C(=O)c1ccc(Br)cc1)CC(=O)N2 (stereo not given)	-2%	x	x	-7%	-9%	u	12%	-3%[46.1 µM]

Further entries.
SMILES	SARS PLP yeast	Cruzain inh Det	Cruzain noTriton	2A StopGo	RE007 growth inh	LASV entry inh	NS1 inh	Marburg entry inh
COc1cc(NC(=O)c2ccc(N3CCCC3=O)cc2)cc(OC)c1	-3%	x	x	15%	12%	4%	x	13%
CCOC(=O)C(NC(=O)NCc1cccc(C(F)(F)F)c1)(OCC)C(F)(F)F (stereo not given)	8%	-4.6%	0%	-22%	47%	u	3%	-9%
O=C(CCSCc1ccccc1Cl)NCc1ccc(F)cc1Cl	x	1.0%	-2%	0%	x	4%[46.1 µM]	x	x
Cc1ccc(C(=O)Nc2c(C)n(C)n(-c3ccccc3)c2=O)cc1	0%	x	x	-11%	-9%	x	-1%	x
Cc1ccc(CNC(=O)c2ccc3nc(N4CCCCC4)sc3c2)cc1	x	-5.4%	0%	47%[activator]	x	-4%[46.1 µM]	x	u
O=C(Cn1cc(SCc2ccc(F)cc2)c2ccccc21)N1CCCC1	x	-9.8%	8%	23%	x	u	x	x
Cc1ccc2c(=O)c(C(=O)c3ccc(Cl)cc3)cn(CC(=O)Nc3ccc4c(c3)OCCO4)c2n1	x	-3.1%	1%	-21%	x	25%[46.1 µM]	x	x
O=C(NCc1cccnc1)C1CCCCN1S(=O)(=O)c1ccc(F)cc1 (stereo not given)	2%	6.5%	-10%	2%	5%	-17%	5%	u
CCN(CC)C(=O)C1=C(C)Nc2nnnn2C1c1cccnc1 (stereo not given)	-5%	2.3%	-7%	-15%	-6%	15%	1%	18%
COc1ccc(N2CCN(C(c3ccc4ncccc4c3)c3nnnn3C(C)C)CC2)cc1 (stereo not given)	-5%	x	x	-27%	10%	x	-31%	x
O=C(NCCC1=CCCCC1)c1ccc(=O)oc1	-2%	-8.4%	-11%	16%	10%	-4%	-14%	-1%&-1%
O=C(/C=C/c1ccco1)NC(=S)Nc1cc(C(F)(F)F)ccc1N1CCOCC1	6%	-13%	-19%	-10%	-7%	-21%	6%	u
COc1ccc(NC(=O)CSCC(=O)Nc2ccccc2N2CCCCC2)cc1	3%	x	x	-14%	-1%	-12%	x	u
CC(C)=CCNc1ncnc2c1c(C#N)cn2C1OC(CO)C(O)C1O (stereo not given)	x	x	x	-19%	-8%	-3%	x	-5%
O=C(NC1CC2CCCC(C1)N2Cc1ccccc1)c1cccc(Cl)c1 (stereo not given)	0%	x	x	-12%	-2%	1%	-23%	1.3µM*
CC1(C)N([O-])C2=C(CCCC2)[N+]1=O	0%	x	x	-13%	4%	u	9%	-4%[46.1 µM]
Cc1ccc(C2=NC(c3ccccc3)=Nc3ccc(Cl)cc3N2)cc1	x	-5.0%	u	6%	x	-14%[46.1 µM]	x	u
CCC1NC(=O)c2ccccc2N1c1cccc(Cl)c1 (stereo not given)	x	x	x	-14%	1%	-3%	x	-28%[46.1 µM]
COCCCNC(=O)CN(c1cc([N+](=O)[O-])ccc1OC)S(C)(=O)=O	1%	x	x	16%	-5%	-16%	0%	8%[46.1 µM]
CC(=O)Nc1ccc(NCc2ccc(C)s2)cc1	-1%	x	x	56%[activator]	-7%	3%	8%	2%
COc1cc(C(CC(=O)N2CCN(c3ccccc3)CC2)c2c(OC)cc(OC)c3ccc(=O)oc23)cc(OC)c1OC (stereo not given)	4%	x	x	-18%	3%	x	u	x
COc1cc(-c2nnc(SCC(=O)O)n2-c2ccccc2)cc(OC)c1OC	5%	x	x	-14%	-8%	8%[46.1 µM]	22%	3%[46.1 µM]
OCCCNc1cc(-c2ccnc(Nc3cccc(Cl)c3)n2)ccn1	-7%	x	x	u	-10%	x	-48%	x
O=C(CN(C(=O)Cn1nnc(-c2ccccc2F)n1)c1cccc2c1CCCC2)NCc1ccccc1	-3%	1.1%	-4%	6%	-3%	-11%	-2%	u

One compound at a time, from the list above. Order of screens: SARS PLP yeast, Cruzain inh Det, Cruzain noTriton, 2A StopGo, RE007 growth inh, LASV entry inh, NS1 inh, Marburg entry inh
COc1cc(-c2nnc(SCC(=O)O)n2-c2ccccc2)cc(OC)c1OC is entered as 5%, x, x, -14%, -8%, 8%[46.1 µM], 22%, 3%[46.1 µM]
O=C(CN(C(=O)Cn1nnc(-c2ccccc2F)n1)c1cccc2c1CCCC2)NCc1ccccc1 is entered as -3%, 1.1%, -4%, 6%, -3%, -11%, -2%, u
COc1cc(C(CC(=O)N2CCN(c3ccccc3)CC2)c2c(OC)cc(OC)c3ccc(=O)oc23)cc(OC)c1OC (stereo not given) is entered as 4%, x, x, -18%, 3%, x, u, x
OCCCNc1cc(-c2ccnc(Nc3cccc(Cl)c3)n2)ccn1 is entered as -7%, x, x, u, -10%, x, -48%, x

Compound activity (PubChem)
